# Resorufin autofl – qHTS Assay for Spectroscopic Profiling in Resorufin Spectral Region. Compound fluorescence, resorufin region 547/598 nm, buffer; active compounds read high. max dye-equivalent concentration, M. 0.04% of 59,000 active. AID 588, 2007; active = above 10 nM dye equivalent; inconclusive = 1 to 10 nM; inactive = 1 nM or less; a few of its hits are not listed in these tables; note: highest value over a series up to 38 µM
#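 Compounds in 100 mM Tris buffer, pH 8.0, incubated 15 min at room temperature, then read with 547 nm excitation and 598 nm emission filters. Fluorescence was converted to dye-equivalent concentration using an on-plate six-point resorufin standard curve.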
# A647 fluor – qHTS Assay for Spectroscopic Profiling in A647 Spectral Region. Compound fluorescence, A647 channel (570/671 nm), Tris buffer. max dye-equivalent concentration, M. 59,000 tested, under 10 active. AID 592, 2007; active means above 1 µM dye equivalent; inconclusive means 0.1 to 1 µM; inactive means 0.1 µM or less;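 note: values scaled relative to a standard on each plate; highest value over a series up to 38 µM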
#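 Spectral profiling of library compounds in pH 8.0 Tris: 15 min room-temperature incubation, single ex/em pair (570/671 nm), response normalized to Alexa 647 equivalents.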
# A488 autofl – qHTS Assay for Spectroscopic Profiling in A488 Spectral Region; 0.1% of 59,000 active; max dye equivalency, M; compound autofluorescence, A488 spectral region, dye equivalency; active compounds read high; active = above 10 nM dye equivalent; inconclusive = 1 to 10 nM; inactive = 1 nM or less; about half of its hits are not listed in these tables;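 note: highest value over a series up to 38 µM; compound alone in buffer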
#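 Readout is A488 dye-equivalent concentration, calibrated by a per-plate six-point Alexa 488 series. Compounds in 100 mM Tris buffer pH 8.0 were incubated 15 min at room temperature. Plates were imaged using 480 nm excitation/540 nm emission filters.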
# AID923 – qHTS Assay for Allosteric/Competitive Inhibitors of Caspase-1: Spectroscopic Profiling in AFC Spectral Region | compound fluorescence, AFC spectral region (405/520 nm); almost no hit is shown here | AID 923, 2007 | 1.1% of 75,000 active | Potency, µM (highest dose often 57.5 µM), for inactives: at the top dose fluorescence increase, most hits filed as activators; active = well fitted activation curve with a large enough effect; inconclusive = small, poorly fitted or top-dose-only effect;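 note: potency is the fitted concentration of half-maximal effect; 0% is about no effect; scaled to a free AFC standard on each plate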
#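 Baseline compound fluorescence (AFC region, 405 nm ex/520 nm em) taken from the intercept of kinetic reads with 50 nM caspase-1 and 5 uM Ac-WEHD-AFC; normalized to an on-plate AFC standard curve; compounds titrated up to 57 uM.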
# TSHR ag – qHTS Assay for Agonists of the Thyroid Stimulating Hormone Receptor | HEK293-CNG-TSHR cells (CNG channel as cAMP sensor), membrane potential dye, cAMP | Potency, µM (series often up to 57.1 µM), for inactives: at the highest dose activation, usual class: activators | 0.48% of 73,000 active; active = well fitted activation curve of enough size with the parental cells flat; inconclusive = any curve in the parental cells; inactive = parental cells flat and receptor cells flat or falling; note: potency is the fitted concentration of half-maximal effect; % of control where 0% means no effect; weak receptor curves with flat parental cells got no call and are not listed
# Target sequence (P16473 whole entry, looked up): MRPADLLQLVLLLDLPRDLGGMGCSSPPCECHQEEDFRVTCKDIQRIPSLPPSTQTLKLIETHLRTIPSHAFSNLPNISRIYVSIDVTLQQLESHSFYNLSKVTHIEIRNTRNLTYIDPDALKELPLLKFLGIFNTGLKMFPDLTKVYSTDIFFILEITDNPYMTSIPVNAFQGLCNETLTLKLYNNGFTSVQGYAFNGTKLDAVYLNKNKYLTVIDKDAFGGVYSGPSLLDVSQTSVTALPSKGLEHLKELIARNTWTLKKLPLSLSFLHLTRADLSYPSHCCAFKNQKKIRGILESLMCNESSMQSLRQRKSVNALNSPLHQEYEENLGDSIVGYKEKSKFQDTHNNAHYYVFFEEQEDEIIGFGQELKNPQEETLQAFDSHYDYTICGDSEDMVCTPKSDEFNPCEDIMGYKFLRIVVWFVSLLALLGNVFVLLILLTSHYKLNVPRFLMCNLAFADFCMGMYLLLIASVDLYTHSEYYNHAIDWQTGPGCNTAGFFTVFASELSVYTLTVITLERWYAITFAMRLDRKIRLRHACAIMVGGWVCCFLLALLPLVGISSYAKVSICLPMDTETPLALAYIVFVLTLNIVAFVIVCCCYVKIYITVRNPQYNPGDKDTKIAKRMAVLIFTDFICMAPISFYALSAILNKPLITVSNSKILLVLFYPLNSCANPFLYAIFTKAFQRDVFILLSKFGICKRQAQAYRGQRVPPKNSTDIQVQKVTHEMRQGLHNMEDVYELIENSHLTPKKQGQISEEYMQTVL
#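 cAMP rise detected as CNG-channel membrane depolarization by fluorescent dye (emission 590 nm), 30 min after compound, following 60 min dye loading containing 100 uM RO 20-1724 at room temperature. Cells: TSHR/CNG HEK 293, with parental CNG HEK 293 as control.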
# An asterisk follows results filed as active; i = inactive; ? = inconclusive; . = not tested or not shown; [ ] = remark or other dose. This is a subset; the hit share may differ from the screen's.
SMILES,Resorufin autofl,A647 fluor,A488 autofl,AID923,TSHR ag
Cc1ccc(C(=O)CCNc2cccc(Br)c2)o1,.,.,.,0.6%,19.3%
Cc1oc2c(CN(C)C)c(O)ccc2c(=O)c1-c1cscn1,i,3.1e-09,i,-2.4%,5.4%
CCCSc1nnc2nc3c(nn12)c1ccccc1n3C,.,.,.,-1.5%,-0.8%
CSC1=NCCN1C(=O)c1ccco1,.,.,.,-1.8%,-0.7%
CCN1CCCC1CNC(=O)c1cn(C)c2ccc(S(=O)(=O)N3CCCCCC3)cc2c1=O (centres undefined),i,1e-09,i,-0.4%,14.6%
COc1ccc(C2N(c3cc(C)on3)C(=O)C3CCCN32)cc1OC (centres undefined),i,2.3e-09,i,0.4%,10.8%
C=CCOC(=O)C1=C(C)OC(N)=C(C#N)C1c1c(C)nn(-c2ccccc2)c1Cl (centres undefined),i,4e-09,i,0.9%,.
CCOC(=O)C(NC(=O)c1ccccc1)(Nc1cc(C)on1)C(F)(F)F (centres undefined),i,1.83e-08,i,0.5%,12.8%
O=C(c1ccc(CS(=O)(=O)Cc2ccc(Cl)cc2)o1)N1CCCC1,i,1e-09,i,-1.6%,7.1%
NC(=O)COC(=O)CNC(=O)c1ccc(Cl)cc1,i,1.73e-08,i,-0.6%,5.5%
COc1cc(C(Nc2ccc3c(c2)OCO3)C(=O)NC2CCCCC2)cc(OC)c1OC (centres undefined),i,5.12e-08,i,-1.8%,-11.4%
CC(C)n1c(SCc2cc(=O)[nH]c3ccccc23)nc2c1c(=O)n(C)c(=O)n2C,i,3.72e-08,i,0.3%,13.5%
COC(=O)C1C(=O)NC(SC)=C(C#N)C1c1ccccc1F (centres undefined),i,1e-09,i,1.1%,-0.6%
Cc1ccccc1N1CCN(Cc2c(C#N)c3ccccc3n2C)CC1,i,2.97e-08,i,0.4%,15.7%
CCCCCCCCCCCCCCCC(=O)NCCc1ccc(O)c(O)c1,.,.,.,0.2%,2.9%
Cc1oc2cc(O)ccc2c(=O)c1Oc1ccccc1Br,.,.,.,1.4%,12.8%
CC(=O)Oc1ccccc1-c1nc(C)nc(N(C)C(C)=O)n1,.,.,.,4.6%,?
Cc1ccc2[nH]c(=S)cc(C)c2c1,i,3.52e-08,i,1.1%,9.7%
COc1ccc2c(=O)c3c(=O)n(Cc4ccco4)c(C4CCCCC4)nc3oc2c1,i,5e-09,i,-0.8%,7.4%
COC(=O)c1c(NC(=O)Cc2cccs2)sc2c1CCC(C)C2 (centres undefined),.,.,.,1.5%,-1.1%
COc1ccc(OC)c(S(=O)(=O)NCCc2ccccc2)c1,i,7.9e-09,i,1.1%,20.2%
CCCn1c(CNc2ccc(Br)cc2)nc2ccccc21,.,.,.,0.3%,31.2%
Cc1c(NC(=O)c2ccc(CN3CCc4ccccc4C3)cc2)c(=O)n(-c2ccccc2)n1C,.,.,.,1.0%,?
CCn1c(SCC(=O)Nc2ccccc2C(=O)OC)nnc1-c1ccoc1C,i,6.9e-09,i,-2.4%,?
CC(C)CC(C(=O)Nc1oc(-c2ccco2)c(-c2ccco2)c1C#N)N1C(=O)c2ccccc2C1=O (centres undefined),i,2.66e-08,i,6.0%,-7.7%
O=C(Nc1ccc(Cl)cc1)N1CCCC1,i,1e-09,i,2.5%,2.5%
Cc1onc(-c2ccccc2)c1C(=O)OCC(=O)c1ccccc1,i,3.34e-08,i,-0.1%,?
CC(NC(=O)NCCCC(=O)O)(C(F)(F)F)C(F)(F)F,i,3.87e-08,i,.,.
COc1cccc(C2C(C#N)=C(N)Oc3c2oc(CO)cc3=O)c1OC (centres undefined),i,4.09e-08,i,0.3%,-1.2%
COc1cc(OC)cc(C(=O)NCC(=O)N2CCC(C)CC2)c1,i,2.83e-08,i,-1.4%,2.1%
N#CCCn1c(C(C#N)(CCC#N)CCC#N)nc2ccccc21,.,.,.,-1.2%,-2.6%
CCOC(=O)C1CCN(Cc2c(O)ccc3ccccc23)CC1,i,7.27e-08,i,0.9%,13.1%
CC(=O)C=NCC(=O)O,i,3.52e-08,i,0.8%[11.5 µM],6.2%[11.4 µM]
CCOCCCn1c(C)nc2c(c1=O)c1nc3ccccc3nc1n2-c1ccc(C)cc1,i,9.3e-09,i,-1.2%,?
CN(C)S(=O)(=O)N1CCN(c2cccc(Cl)c2)CC1,.,.,.,-2.5%,-7.5%
Cc1ccc(-c2nnn(CC(=O)Nc3cccc4cccnc34)n2)o1,i,3.66e-08,i,1.2%,?
Cc1ccc(S(=O)(=O)N2CCCC2C(=O)Nc2cc(C)on2)cc1 (centres undefined),i,1e-09,i,2.7%,17.7%
O=C(Nc1ccccc1Cl)c1cccs1,i,4.61e-08,i,0.8%,8.2%
CC(C)Cc1cc(C(=O)NCCN2CCOCC2)no1,.,.,.,2.6%,-9.7%
Cc1nc2oc(C(=O)c3ccccc3)c(N)c2c2c1COC(C)(C)C2,i,3.3e-09,i,3.0%,-8.7%

# Continued, overlapping the part above by 6 compounds.
SMILES,Resorufin autofl,A647 fluor,A488 autofl,AID923,TSHR ag
CN(C)S(=O)(=O)N1CCN(c2cccc(Cl)c2)CC1,.,.,.,-2.5%,-7.5%
Cc1ccc(-c2nnn(CC(=O)Nc3cccc4cccnc34)n2)o1,i,3.66e-08,i,1.2%,?
Cc1ccc(S(=O)(=O)N2CCCC2C(=O)Nc2cc(C)on2)cc1 (centres undefined),i,1e-09,i,2.7%,17.7%
O=C(Nc1ccccc1Cl)c1cccs1,i,4.61e-08,i,0.8%,8.2%
CC(C)Cc1cc(C(=O)NCCN2CCOCC2)no1,.,.,.,2.6%,-9.7%
Cc1nc2oc(C(=O)c3ccccc3)c(N)c2c2c1COC(C)(C)C2,i,3.3e-09,i,3.0%,-8.7%
S=c1nc[nH]c2c1ncn2Cc1ccco1,i,1e-09,i,0.7%[11.5 µM],4.3%[11.4 µM]
CC(C)(C)c1ccc(-c2nnc(SCCC#N)n2C2CCCC2)cc1,i,4.65e-08,i,-3.6%,?
O=C(c1cccc(S(=O)(=O)N2CCOCC2)c1)N1CCOCC1,.,.,.,2.6%,?
Cn1c(Cc2cccs2)nnc1SCC(=O)N1CCc2ccccc21,i,5.7e-09,i,1.7%,4.7%
CCOc1ccc(C(C)NC(=O)CCC(=O)O)cc1 (centres undefined),.,.,.,1.1%,4.2%
CC(=O)c1ccc(-c2nc3c4ccccc4ccn3c2C(C)=O)o1,.,.,.,0.7%,4.3%
Cn1c(O)c(N=N/C(=N/c2ccccn2)c2ccccn2)c2cc(Br)ccc21,.,.,.,2.5%,?
COc1cccc2cc(C(=O)N3CCN(c4ccccc4F)CC3)c(=O)oc12,i,1e-09,i,-0.2%,7.2%
Cc1cc(NS(=O)(=O)c2ccc(C3CCCCC3)cc2)no1,i,2.34e-08,i,-6.1%,15.9%
CCCN1C(=O)C(NS(=O)(=O)c2ccc(N)cc2)(C(F)(F)F)C(C(=O)OC)=C1C (centres undefined),i,6.49e-08,i,-1.2%,-0.7%
O=c1c2ccccc2c(C=NCCCN2CCOCC2)c(O)n1Cc1ccccc1,i,2.46e-08,i,0.8%,10.1%
N#Cc1nc(COc2ccccc2)oc1N1CCCCC1,.,.,.,2.1%,?
CCN(CC)CCNC(=O)c1cn(C)c2ccc(S(=O)(=O)N(C)C3CCCCC3)cc2c1=O,.,.,.,1.0%,?
COc1ccc(CN(C(=O)Cn2nnc3ccccc32)C(C(=O)NC(C)(C)C)c2ccco2)cc1 (centres undefined),i,1.01e-08,i,-1.4%,?
CCOC(=O)Nc1ccc(C(N)=O)cc1,i,1.21e-08,i,1.0%,1.2%
COc1ccc(N2C(=O)C3CCCN3C2c2cc(OC)c(OC)c(OC)c2)cc1 (centres undefined),.,.,.,2.9%,?
CC1CN(C2CCN(S(=O)(=O)c3ccc4ccccc4c3)CC2)CC(C)O1 (centres undefined),i,1e-09,i,.,.
CCNC(=O)CC1C(=O)N(c2ccc(F)cc2)C(=O)N1CCC(C)C (centres undefined),i,1e-09,i,0.3%,-4.6%
CN(C)CCCNC(=O)C1CCNCC1,.,.,.,1.0%,-5.0%
CC(C)CNC(=O)C1C2C=CC(C2)C1C(=O)O (centres undefined),i,1e-09,i,-0.5%,-5.2%
Cc1ccc(-n2[nH]c(C)c(/C=N/n3c(C)nc4ccccc4c3=O)c2=O)cc1,i,2e-08,i,1.1%,24.6%
COc1ccc(N2C(=O)C3CCCN3C2c2ccccc2OC)cc1 (centres undefined),.,.,.,0.1%,2.6%
COc1cccc(C2C3=C(N=C4SCC(=O)N42)c2ccccc2CC3)c1OC (centres undefined),.,.,.,3.5%,22.1%
CC(=O)NC1(c2nnnn2CCOC(=O)Nc2ccc(Cl)cc2)CCCCC1,i,1.42e-08,i,-1.6%,-16.9%
CCCCCCC(=O)O,.,.,.,0.7%,6.7%
Cn1c(-c2ccc(Cl)cc2)cnc1N,i,2.21e-08,i,-0.8%,1.5%
O=C(CSc1nnc2c(Cl)cc(Cl)cn12)N1CCN(S(=O)(=O)c2ccccc2)CC1,i,1.3e-09,i,-0.5%,-2.8%
COc1ccc2ccccc2c1CN1CCN(C)CC1,.,.,.,2.8%,23.4%
Cc1ccc(S(=O)(=O)N2CCC(C(=O)OC(C)C(=O)NCc3ccc4c(c3)OCO4)CC2)cc1 (centres undefined),i,1e-09,i,1.3%,0.4%
O=C(Cn1cnc2sc(-c3ccccc3)cc2c1=O)N1CCOCC1,i,6.1e-09,i,2.8%,-2.0%
COc1nc2cc(C)ccc2cc1-c1noc(-c2cccnc2)n1,i,1e-09,i,5.6%,9.7%
CC(=O)c1sc(NC(=O)C2(F)C(F)(F)C(F)(F)C(F)(F)C(F)(F)C2(F)F)nc1C,i,4.7e-09,i,-0.9%,?
CSCCC(NC(=O)c1occc1C)C(=O)O (centres undefined),i,1e-09,i,2.2%,3.8%
COCCNC(=O)C(c1ccc(C)o1)N(C(=O)c1snc(C(N)=O)c1N)c1ccc(C)cc1 (centres undefined),i,7.09e-08,i,4.1%,31.6µM*
Cc1ccc2[nH]c(=O)c3cc(C(=O)N4CCN(C(=O)c5ccco5)CC4)sc3c2c1,.,.,.,4.5%,-6.6%
Cc1ccc(NCc2nnc(SCc3ccc(C#N)cc3)n2Cc2ccco2)c(C)c1,i,1.61e-08,i,0.6%,?
Cc1cc(C)nc(N(C#N)Cc2ccccc2)n1,i,1e-09,i,0.5%,28.5%
COc1ccc(Oc2ncc3nc(C)c(=O)n(Cc4cccs4)c3n2)cc1,i,1.5e-09,i,2.1%,?
S=c1nc2ccccc2c2nc(-c3ccccc3)[nH]n12,i,1e-09,i,-0.7%,-3.3%
COC(=O)C/C=C\[C@@H](C)[C@@H](/C=N\OC[C@@H](O)[C@H]1O[C@H]2OC(C)(C)O[C@H]2[C@@H]1O)OC,.,.,.,-1.8%[11.5 µM],-5.9%[11.4 µM]

# 2 of the compounds above, with tabs:
SMILES	Resorufin autofl	A647 fluor	A488 autofl	AID923	TSHR ag
CC(=O)NC1(c2nnnn2CCOC(=O)Nc2ccc(Cl)cc2)CCCCC1	i	1.42e-08	i	-1.6%	-16.9%
CCCCCCC(=O)O	.	.	.	0.7%	6.7%

# Next part
SMILES,Resorufin autofl,A647 fluor,A488 autofl,AID923,TSHR ag
C=CCOc1ccc(/C=N/n2cncn2)cc1OC,i,4.04e-08,i,-1.0%,-0.2%[11.4 µM]
O=C(c1ccc2ccccc2n1)N1CCN(c2ccccc2)CC1,i,2.7e-09,i,0.9%,?
O=C1CCCC2=C1C(c1ccc(Br)cc1)c1c([nH]c(=S)[nH]c1=O)N2 (centres undefined),i,6.7e-09,i,-1.4%,7.0%
CC(=O)NCCNc1ncnc2ccc(-c3ccccc3C)cc12,i,1.7e-09,i,10.9%,?
